Screens (PubChem BioAssay)
GIRK2 act: opens human GIRK2 potassium channels; AID 1259325; actives 0.05% (n = 63,000); calls only for hits at 25 µM; P48051; HEK293-GIRK2 thallium flux, Thallos fluorescence;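 active means among the strongest 0.2% of first-round signals and kept after retests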;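 further: first round at about 10 µM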
Target sequence (P48051 whole entry, looked up): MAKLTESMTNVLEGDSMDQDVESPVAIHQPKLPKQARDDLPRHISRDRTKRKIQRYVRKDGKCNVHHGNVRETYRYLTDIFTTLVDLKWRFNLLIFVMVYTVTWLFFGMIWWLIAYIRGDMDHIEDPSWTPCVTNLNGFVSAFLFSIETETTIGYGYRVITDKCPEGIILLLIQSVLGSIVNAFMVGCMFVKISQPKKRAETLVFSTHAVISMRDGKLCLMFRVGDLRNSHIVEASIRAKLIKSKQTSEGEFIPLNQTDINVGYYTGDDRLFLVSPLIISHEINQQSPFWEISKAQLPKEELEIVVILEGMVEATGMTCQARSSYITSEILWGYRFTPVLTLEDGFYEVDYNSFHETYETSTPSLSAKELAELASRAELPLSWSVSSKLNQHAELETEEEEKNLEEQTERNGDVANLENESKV
Calls only; i = inactive.

SMILES	GIRK2 act
O=S(=O)(NCc1ccc(C(O)c2cccs2)s1)c1ccccc1Br (centres undefined)	i
CCOC(=O)c1ccccc1NC(=O)CN1CC(c2nc(-c3cccs3)no2)C1	i
O=C(CC1Sc2ccc(C(F)(F)F)cc2NC1=O)Nc1ccc(Cl)c([N+](=O)[O-])c1 (centres undefined)	i
COc1ccc(CCNC(=O)c2cc3c(=O)n(C)c(=O)n(C)c3s2)cc1OC	i
O=C(NC1CCN(C(=O)c2cc(-c3cccc(Cl)c3)n[nH]2)CC1)C1CCCCC1	i
Cn1nc(-c2ccc(F)cc2)cc1C(=O)N1CCCC(COCc2ccccc2)C1 (centres undefined)	i
COc1ccc(NC(=O)c2nnn(Cc3nc(-c4ccc(OC)c(OC)c4)oc3C)c2N)c(OC)c1	i
Cc1ccc(N2CC(C(=O)NCC(c3cccs3)S(=O)(=O)c3ccc(C)cc3)CC2=O)cc1 (centres undefined)	i
COC(=O)Nc1ccc(S(=O)(=O)N2CCC(C(=O)NC3CCCCC3)CC2)cc1	i
O=C(Nc1ccc(C(F)(F)F)cc1)c1nc(N2CCCC2)ncc1Cl	i
CCc1ccc(S(=O)(=O)N2CCC(Oc3ncccc3Cl)CC2)s1	i
Cc1ccc(S(=O)(=O)N(C)c2c(C)ccc(S(=O)(=O)N3CCOCC3)c2C)cc1	i
CC1=NN(CC(=O)O)c2nc3c(c(=O)n(C)c(=O)n3C)n2C1	i
Cc1cc2oc(=O)cc(CN3CCN(Cc4ccc5c(c4)OCO5)CC3)c2cc1O	i
COc1ccc(NC(=O)Cn2cc(S(=O)(=O)N3CCOCC3)ccc2=O)cc1	i
Cc1cc(C)n(-c2cc(N3CCN(C(=O)c4ccccc4F)CC3)nc(C)n2)n1	i
Cn1c(-c2ccccn2)nn(CCNC(=O)c2ccc(-n3cccc3)cc2)c1=O	i
Cn1nc(CNC(=O)CN2C(=O)CCC2=O)cc1-c1ccncc1	i
COC(=O)c1ccc(CN2CCC(c3nnc(-c4ccsc4)o3)CC2)o1	i
O=c1c(=O)n(-c2ccccc2)ccn1Cc1nc(-c2ccc(Cl)cc2)no1	i
C=CCn1c(=O)c2ccccc2n(Cc2nc(-c3cccc(Br)c3)no2)c1=O	i
CC(=O)NCCc1nc2ccccc2n1Cc1ccc(Cl)cc1Cl	i
CCN(c1ccsc1C(=O)N1CCCCC1)S(=O)(=O)c1ccc(Cl)cc1	i
CCN1CCc2c(sc(NC(=O)c3c(F)cccc3F)c2-c2nc3ccccc3s2)C1	i
CC(C)=CCCC(C)(O)CCCC(C)(O)CCCC(C)(O)CCCC(C)(O)CCCC(C)(O)CCCC(C)(O)C(O)CC/C(C)=C/CC/C(C)=C/CO[C@@H]1O[C@H](CO)[C@@H](O)[C@H](O)[C@H]1O (some centres undefined)	i

The final 4 records of the section before are carried over, then new ones follow:
SMILES	GIRK2 act
CC(=O)NCCc1nc2ccccc2n1Cc1ccc(Cl)cc1Cl	i
CCN(c1ccsc1C(=O)N1CCCCC1)S(=O)(=O)c1ccc(Cl)cc1	i
CCN1CCc2c(sc(NC(=O)c3c(F)cccc3F)c2-c2nc3ccccc3s2)C1	i
CC(C)=CCCC(C)(O)CCCC(C)(O)CCCC(C)(O)CCCC(C)(O)CCCC(C)(O)CCCC(C)(O)C(O)CC/C(C)=C/CC/C(C)=C/CO[C@@H]1O[C@H](CO)[C@@H](O)[C@H](O)[C@H]1O (some centres undefined)	i
CN(C)S(=O)(=O)c1ccc(-c2nc(C#N)c(NCC3CCCO3)o2)cc1 (centres undefined)	i
COC(=O)c1ccc2c(c1)sc(=NC(=O)CCCS(=O)(=O)c1ccccc1)n2C	i
CC(Oc1ccc2c(c1)OCO2)C(=O)NCCOc1ccccc1 (centres undefined)	i
CCOC(=O)c1sc2c(c1NC(=O)c1ccc3nnsc3c1)CCC(C)C2 (centres undefined)	i
CN(C)CC1COCCN1C(=O)c1ccc2[nH]ccc2c1 (centres undefined)	i
COc1ccc(-c2cc3c4nn(CC(=O)Nc5cc(Cl)ccc5C)c(=O)n4ccn3n2)cc1	i
COc1cc(OC)cc(C(=O)Nc2ccc3c(c2)CCCN3C(=O)C(C)C)c1	i
COC(=O)c1cccc(NC(=O)c2cn(CC(O)c3ccccc3)nn2)c1 (centres undefined)	i
COc1ccc(NC(=O)Cn2c(=O)c(CNc3ccccc3)cc3ccc(C)cc32)cc1Cl	i
O=C(CSCc1ccccc1)N1CCC(CSc2ccccn2)CC1	i
COc1c(C(=O)CC(OC)c2ccccc2)ccc2occc12 (centres undefined)	i
CCCCC[C@H]1C=C[C@@H]2[C@@H](C/C=C\CCCC(=O)O1)[C@@H](O)C[C@H]2O	i
Cc1cc(=O)[nH]c(SCC(=O)c2ccc3c(c2)OCO3)n1	i
Cn1cc(C(=O)Nc2cccc3nsnc23)nn1	i
COc1cccc(NC(=O)NC(C)Cc2cccs2)c1OC (centres undefined)	i
NS(=O)(=O)c1ccc(NC(=O)CC2SC(N3CCOCC3)=NC2=O)cc1 (centres undefined)	i
CCC(C)n1c(=O)c2ccccc2n(Cc2nc(-c3ccccc3)no2)c1=O (centres undefined)	i
O=C(NCCN1CCN(c2ccc(Cl)cc2)CC1)c1ccccc1Cl	i
O=C(NCC(F)(F)F)C1CCN(C(=O)c2ccc(F)c(F)c2)CC1	i
CCn1c(SCCN2CCCCC2)nc2c1c(=O)[nH]c(=O)n2C	i
O=C(O)CC(CC(=O)N1CCC2(CC1)OCCS2)c1cccs1 (centres undefined)	i
O=C(NCCCn1ccnc1-c1ccccc1)Nc1cccc(C(F)(F)F)c1	i
COC(=O)NCCC(O)C(C)(C)C (centres undefined)	i
COc1ccc(C(=O)N2CCC(Oc3ccc(C#N)cn3)CC2)cc1OC	i
O=C(NN1CCOCC1)C1CCCN(c2ccc(-c3cccs3)nn2)C1 (centres undefined)	i
The list continues:
SMILES	GIRK2 act
O=C(/C=C/c1ccccc1)N1CCC(Cn2c(C(F)(F)F)nc3ccccc32)CC1	i
O=C(NCC#CCOc1ccc2c(c1)OCO2)c1ccccc1Br	i
CCOC(=O)c1ccccc1NC(=O)Cn1nc2ccc(C(=O)Nc3ccc(OC)cc3)cn2c1=O	i
O=C(Cc1csc(Nc2ncccn2)n1)NCCc1c[nH]c2ccccc12	i
CCC(=O)N1CCN(CCn2ccnc2-c2ccccc2)CC1	i
COC(=O)N1CCc2ccccc2C1C(=O)Nc1cccc(-c2csc(C)n2)c1 (centres undefined)	i
CSc1nnc(-c2ccccc2NC(=O)c2cccc(S(=O)(=O)N3CCCC3)c2)o1	i
CC1CCCC1CN (centres undefined)	i
Cn1nc(-c2ccc(F)cc2)cc1C(=O)NCC1CCN(C(=O)/C=C/c2ccco2)CC1	i
CC(C)(C)C(NC(=O)OCc1ccccc1)C(=O)O (centres undefined)	i
COc1cccc2cc(C(=O)NC(C)Cc3cccs3)oc12 (centres undefined)	i
O=S(=O)(c1cccnc1)N1CCCC(c2nnc(-c3ccccc3F)s2)C1 (centres undefined)	i
COc1ccc(NC(=O)CS(=O)(=O)c2ccc3c(c2)S(=O)(=O)N=C(C)N3)cc1OC	i
COC(=O)c1cc(OC)c(OC)cc1NC(=O)C1=Cc2cc(OC)ccc2OC=C1	i
O=S(=O)(c1ccccc1)c1nc(NCc2cccnc2)sc1Cl	i
COc1ccc(-c2ccc(=O)n(CCNS(=O)(=O)c3ccccc3Cl)n2)cc1	i
O=C(NCC1(c2ccc(F)cc2)CCOCC1)c1ccsc1	i
COc1ccc(Cl)cc1NC(=O)CN1CCN(S(=O)(=O)c2ccc3ccccc3c2)CC1	i
COC(=O)COc1ccc2cc(-c3cc(OC)ccc3OC)c(=O)oc2c1	i
COc1ccc(NC(=O)CSC2=NC3(CCCCCC3)Nc3ccccc32)c(OC)c1	i
COc1ccc(NC(=O)c2sccc2S(=O)(=O)N2CCN(c3cc(C)ccc3C)CC2)cc1	i
CN(C)C(CNC(=O)C1(c2ccc(F)cc2)CC1)c1cn(C)c2ccccc12 (centres undefined)	i
CCOc1ccc(Nc2c(C(=O)N(CC)CC)cnc3nc(C)ccc23)cc1	i
CC(CNc1nccn(-c2ccccc2)c1=O)c1ccccc1 (centres undefined)	i
O=C(/C=C/c1ccco1)Nc1ccc2c(c1)CC(=O)N2	i
More compounds.
SMILES	GIRK2 act
CCN1CCC[C@H]1CNC(=O)c1cc(S(N)(=O)=O)ccc1OC	i
COc1ccc2nc(N(CCn3cccn3)C(=O)c3cccc(N4C(=O)CCC4=O)c3)sc2c1	i
Nc1nc(NCCO)ncc1[N+](=O)[O-]	i
C=CCOC(=O)COc1ccc2c(c1)O/C(=C\c1sccc1C)C2=O	i
COc1ccc(N(Cc2nc(-c3ccc(OC)c(OC)c3)oc2C)S(=O)(=O)c2ccccc2)cc1	i
CC1CC(C)CN(S(=O)(=O)c2c(Cl)cccc2Cl)C1 (centres undefined)	i
COC(=O)c1ccc2c(=O)n(CC(=O)NCc3ccc(OC)cc3)c(=S)[nH]c2c1	i
CCN(CC)c1ccc(-c2noc(CN3CCN(c4ccccn4)CC3)n2)cn1	i
O=C(NCc1ccc(C(O)c2cccs2)s1)C1CC1 (centres undefined)	i
O=c1c2ccccc2n(Cc2nc(-c3ccccc3)no2)c(=O)n1CC1CCCO1 (centres undefined)	i
COc1ccccc1N1CCN(C(CNS(=O)(=O)c2ccccc2)c2cccnc2)CC1 (centres undefined)	i
COCCCn1c(O)c(C=Nc2cc(OC)ccc2OC)c(C)c(C#N)c1=O	i
CC(C)(C)c1ccc(S(=O)(=O)NCC(=O)Nc2ccc3c(c2)OCCO3)cc1	i
NC(=O)CNC(=O)c1coc(NC(=O)c2ccccc2)n1	i
COc1cc(Cn2nc(-c3ccccc3)c3sc(N4CCOCC4)nc3c2=O)cc(OC)c1	i
Cc1nnc(SCC(=O)c2ccc3c(c2)OCCO3)s1	i
Cc1nn(C)cc1C(=O)NC(C)(C)C	i
O=C(c1cc(=O)c2ccccc2o1)N1CCN(Cc2nc(-c3ccc(F)cc3)cs2)CC1	i
Cc1ccc(C(=O)Nc2ccc(Cn3cnc(C(=O)NCc4ccc(F)cc4)c3)cc2)cc1C	i
Cc1ccc(-c2ccc(OCC(=O)NC(C)(C)C)cc2)cc1	i
CCn1cc(C(=O)O)c(=O)c2cc3c(cc21)OCO3	i
CCOc1ccc(-c2cc3c(=O)n(Cc4nc(-c5ccc6c(c5)OCO6)no4)ncn3n2)cc1	i
COc1ccc(C2NC(=S)NC(C)=C2C(=O)Nc2ccc(C)c(C)c2)c(OC)c1 (centres undefined)	i
Cc1ccc(C)c(Cn2c(=O)c3c(nc4n(-c5ccc(S(N)(=O)=O)cc5)c(C)cn34)n(C)c2=O)c1	i
NC(=O)c1ccc(NC(=O)C(=O)Nc2cccc(N3CCCS3(=O)=O)c2)cc1	i

Reformatted field by field: part of the list above
mol: O=c1c(=O)n(-c2ccccc2)ccn1Cc1nc(-c2ccc(Cl)cc2)no1
  GIRK2 act = i

mol: C=CCn1c(=O)c2ccccc2n(Cc2nc(-c3cccc(Br)c3)no2)c1=O
  GIRK2 act = i

mol: CC(=O)NCCc1nc2ccccc2n1Cc1ccc(Cl)cc1Cl
  GIRK2 act = i

Returning to the listing, starting 5 compounds before the break.
SMILES	GIRK2 act
CCn1cc(C(=O)O)c(=O)c2cc3c(cc21)OCO3	i
CCOc1ccc(-c2cc3c(=O)n(Cc4nc(-c5ccc6c(c5)OCO6)no4)ncn3n2)cc1	i
COc1ccc(C2NC(=S)NC(C)=C2C(=O)Nc2ccc(C)c(C)c2)c(OC)c1 (centres undefined)	i
Cc1ccc(C)c(Cn2c(=O)c3c(nc4n(-c5ccc(S(N)(=O)=O)cc5)c(C)cn34)n(C)c2=O)c1	i
NC(=O)c1ccc(NC(=O)C(=O)Nc2cccc(N3CCCS3(=O)=O)c2)cc1	i
CCc1cnc2c(c1SCC(=O)Nc1ccc(OC)c(OC)c1)c(=O)n(C)c(=O)n2C	i
Cn1c(NC(=O)c2cccc([N+](=O)[O-])c2)c(-c2ccccn2)c(=O)c2ccccc21	i
COc1ccc(CNC(=O)N2CCC(Oc3nc4c(C)cccc4s3)CC2)cc1OC	i
COc1ccc(C)c2sc(N(Cc3ccco3)C(=O)CCCS(=O)(=O)Cc3ccccc3)nc12	i
O=C(NC(c1ccccc1)c1ccccc1)N(CC(F)(F)F)C1CCOCC1	i
COc1ccccc1S(=O)(=O)NCC1CCN(C(=O)c2ccncc2)CC1	i
C#C[C@]1(O)CC[C@H]2[C@@H]3CCC4=CC(=O)CC[C@@H]4[C@H]3CC[C@@]21C	i
COc1ccc(-c2noc(-c3c(C)cc(C)n(CC(=O)Nc4c(C)cc(C)cc4C)c3=O)n2)cc1	i
COCCOC(=O)c1c(C)n(C)c2ccc(OC(=O)c3ccco3)cc12	i
O=C(COc1ccccc1F)NC1CC(O)C(CO)C1 (centres undefined)	i
CCOc1ccccc1C(=O)N1CCN(CC(=O)c2ccco2)CC1	i
CC(C)(C)OC(=O)NC1(CO)COC(C)(C)OC1	i
COc1ccc(CCNC(=O)NCCCn2ccnc2-c2ccccc2)cc1	i
O=C(Cc1csc(Nc2ncccn2)n1)N1CCN(c2cccc(Cl)c2Cl)CC1	i
CCc1cccc(NC(=O)N2CCN(c3cc(-n4cccc4)ncn3)CC2)c1	i
CSc1ccccc1C(=O)Nc1nnc(C2CC(=O)N(c3ccccc3)C2)o1 (centres undefined)	i
CCOCC(=O)Nc1cc(C)nn1-c1nc(-c2ccc(Cl)cc2)cs1	i
COc1cccc2cc(C(=O)NCCSc3nncn3C)oc12	i
COc1cc(/C=C/C(=O)NCc2cc(C)oc2C)cc(OC)c1OC	i
COC(=O)c1c(NCCN2CCCc3ccccc32)c2ccccc2[nH]c1=O	i
O=C(NCCCn1ncccc1=O)c1ccc(F)c(F)c1	i
Cc1ccc(Cl)cc1NC(=O)Cn1cnc2c(-c3ccncc3)nsc2c1=O	i

Only part of the results is shown. The share of hits here may be higher or lower than overall.
